Bioassay records: PubChem BioAssay, several laboratories
RecA splice inh: Mtb RecA intein splicing inhibition. P9WHJ3. cell-free RecA intein splicing, fluorescence. inhibition, %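 (about 9 µM by stock and volumes)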. actives 0.75% (n = 290,000). AID 2221; in the data active = inhibition above about 30%;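 note: 0% = vehicle wells and 100% = reference inhibitor control wells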
Target sequence (P9WHJ3 whole entry, looked up, canonical isoform): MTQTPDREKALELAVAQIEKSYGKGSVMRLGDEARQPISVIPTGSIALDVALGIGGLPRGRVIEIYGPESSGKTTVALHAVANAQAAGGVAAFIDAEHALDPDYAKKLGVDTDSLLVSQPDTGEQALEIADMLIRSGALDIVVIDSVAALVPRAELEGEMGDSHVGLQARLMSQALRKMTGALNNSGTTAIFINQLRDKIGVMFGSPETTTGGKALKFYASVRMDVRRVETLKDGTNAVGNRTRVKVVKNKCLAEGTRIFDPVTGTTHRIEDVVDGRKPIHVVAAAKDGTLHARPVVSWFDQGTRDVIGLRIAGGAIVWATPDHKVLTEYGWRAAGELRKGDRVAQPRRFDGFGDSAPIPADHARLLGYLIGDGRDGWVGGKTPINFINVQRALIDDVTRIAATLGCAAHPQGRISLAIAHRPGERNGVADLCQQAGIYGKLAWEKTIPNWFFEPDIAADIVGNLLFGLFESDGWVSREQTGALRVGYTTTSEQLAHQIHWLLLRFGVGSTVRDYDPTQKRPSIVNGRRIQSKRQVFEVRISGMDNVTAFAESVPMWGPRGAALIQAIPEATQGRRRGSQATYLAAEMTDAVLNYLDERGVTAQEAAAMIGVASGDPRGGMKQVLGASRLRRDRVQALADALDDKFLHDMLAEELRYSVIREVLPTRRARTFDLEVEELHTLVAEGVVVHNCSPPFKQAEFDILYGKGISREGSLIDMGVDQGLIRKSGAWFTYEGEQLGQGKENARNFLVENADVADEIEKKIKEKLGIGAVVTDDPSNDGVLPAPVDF
Arbovirus anti: blocks arbovirus infection. arbovirus infection cell-based antiviral screen. inhibition, % at 10 µM. actives 0.37% (n = 200,000). AID 1251;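 active = inhibition from about 30%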;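 note: bluetongue infection of BSR cells; cell survival read as ATP light after 72 h; 0% = infected wells without compound and 100% = uninfected wells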
YopH PTP inh: inhibitors of Yersinia enterocolitica YopH tyrosine phosphatase; fluorescence Ex485/Em525; inhibition, %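 (about 10 µM by stock and volumes)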; actives 0.16% (n = 140,000);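 active = inhibition of 50% or more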;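 note: controls were vehicle for no effect and minimum signal wells for full effect; inactives centre near -20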
Mtb betalactam: beta-lactam sensitization of Mtb H37Rv | M. tuberculosis H37Rv growth with meropenem, percent inhibition; hits of this screen are not shown here | inhibition, % at 25 µM | actives 0.27% (n = 330,000) | AID 434955;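 active = about 74% or more and at least 40 points above the plate without the antibiotic, then above 30% in a dose series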;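 note: growth measured after seven days incubation then overnight dye step; 0% = bacteria only wells and 100% = bacteria with antibiotic; twin plates without the antibiotic show which effects depend on it; some results filed as inactive read as strong as hits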
Mtb growth: M. tuberculosis H37Rv growth inhibitors, H37Rv strain (AID 1626). M. tuberculosis H37Rv growth inhibition; higher % means a stronger effect. one-dose inhibition, % at 10 µM; IC50 in µM for titrated hits. actives 0.95% (n = 220,000);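 active = confirmed in a dose series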;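 note: bacteria incubated seven days before Alamar blue readout; 0% = bacteria only wells and 100% = bacteria with antibiotic wells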
Numbers without * were called inactive; / = no result given.

Below each compound: RecA splice inh, Arbovirus anti, YopH PTP inh, Mtb betalactam, Mtb growth
- O=C(CCC(=O)c1ccccc1)NC1CCCN(Cc2ccccc2F)C1 (stereo not given)
→ -1.3, /, /, -1.4, /
- CC1(C)CC(=O)c2c(O)cc(OCC(=O)N3CCN(c4ccccc4)CC3)cc2O1
→ 4.4, /, /, -7.5, /
- COc1ccc(CC(C#N)(CO)c2nc3ccccc3[nH]2)cc1 (stereo not given)
→ 0.1, -3.1, -25.3, -4.4, 1.6%
- Cc1ccc(C(=O)NCCc2nnc(SCC(=O)Nc3nc(-c4ccccc4)cs3)n2C)cc1
→ 1.0, -4.4, -32.4, -0.8, 0.6%
- CC(C)c1ccc(N(CCc2ccccn2)C(=O)C(C)(C)C)cc1
→ -0.4, /, /, -13.0, /
- CCOc1ccc(C(=O)CC(NCc2cccs2)C(=O)O)cc1 (stereo not given)
→ 5.0, -1.3, /, 6.8, 0.5%
- Cc1ccc(C)c(C(=O)CSc2n[nH]c(C(C)C)n2)c1
→ 2.7, -5.5, -40.2, -1.3, 0.9%
- CN=c1scc(-c2ccccc2Br)n1/N=C/c1ccc[nH]1
→ 1.9, 4.2, /, 95.6, 3.9%
- C=CCn1c(SCc2c(C)noc2C)nnc1C1COc2ccccc2O1 (stereo not given)
→ 7.9, 71.0*, -46.3, 0.3, -5.0%
- Cc1cc2nc(C3CCCN(C(=O)NCc4ccccc4)C3)[nH]c2cc1C (stereo not given)
→ 2.8, -13.1, 15.2, -2.4, -3.5%
- C#CCNC(=O)C1=C[C@H](C2CCCCC2)C[C@H](OCc2ccc(CO)cc2)O1
→ 9.6, -6.8, /, 1.1, -4.6%
- CN(C)c1ccc(S(=O)(=O)NCC(=O)NCCOc2ccccc2F)cc1[N+](=O)[O-]
→ -0.3, /, /, -7.5, /
- O=C(c1ccco1)N1CCN(CCCCN2C(=O)c3ccccc3C2=O)CC1
→ -2.1, -0.4, -39.2, -13.8, -5.1%
- COc1ccc(CC(=O)n2nc(-c3ccccc3)nc2NCc2ccco2)cc1
→ -0.9, 1.9, -21.9, -4.2, /
- Cc1ccc(C)c(NC(=S)NCC(c2ccccc2)N(C)C)c1 (stereo not given)
→ -3.7, 9.2, /, -1.8, 7.7%
- COc1cccc(CN(C(=O)c2cc3ccccc3oc2=O)C2CCS(=O)(=O)C2)c1 (stereo not given)
→ 1.7, /, /, -6.3, /
- CCOC(=O)Cc1csc(Nc2ccc(Cl)cc2)n1
→ 1.6, 4.4, -36.0, 5.2, 7.8%
- CCn1c(CC(=O)Nc2ccc(C)cc2)nnc1SCC(=O)N1CCN(c2ccccc2)CC1
→ -3.5, 1.7, 26.6, 11.1, 0.0%
- COCC(=O)N(C)c1nnc(-c2cnccn2)s1
→ -3.5, -2.0, -20.4, -4.4, -9.4%
- O=C1C2C3C=CC(C4CC34)C2C(=O)N1Cc1ccccc1 (stereo not given)
→ -3.1, 2.3, /, -5.4, -1.0%
- CCOc1ccc(NC(=O)COc2ccc(C(=O)NCc3cccnc3)cc2OC)cc1
→ -1.0, /, /, -9.8, /
- COc1ccc(CCNC(=O)CCN2C(=O)[C@@H]3Cc4ccccc4CN3C2=O)cc1OC
→ -7.6, /, /, -4.0, /
- CC(=O)NS(=O)(=O)c1ccc(NC(=O)COc2cccc3c2OC(C)(C)C3)cc1
→ -2.9, /, /, -1.7, /
- COc1cccc(CN2CCN(C(=O)C3CCC(=O)N(C4CCCC4)C3)CC2)c1 (stereo not given)
→ -0.2, /, /, -4.8, /
- COc1cccc(C(=O)NC(=O)Nc2cc(C)[nH]n2)c1
→ -0.9, /, /, -8.1, -10.4%
- Cc1cc2c(cc1S(=O)(=O)N1CCN(c3cccc(C(F)(F)F)c3)CC1)OCC(=O)N2
→ 1.7, /, /, -2.9, /
- Cc1cc(C)c(NC(=O)c2cn3c4c(c(N5CCN(C)CC5)c(F)cc4c2=O)OCC3C)c(C)c1 (stereo not given)
→ -3.4, -30.5, -26.6, -5.1, 9.1%
- Cn1c(=O)n(Cc2ccc(Cl)cc2)c2ccccc21
→ 4.6, -5.8, -29.3, 0.7, -0.4%
- COc1ccc2c(c1)[C@]13CCCCC1C(C2)N(C)CC3 (stereo not given in full)
→ 0.5, /, /, -3.6, -1.8%
- Cc1cc(Cl)cc(Br)c1OCCCN1C(=O)NC(C)(C)C1=O
→ 4.2, 2.8, -11.6, 1.2, 0.3%

Four entries from above, field by field:
SMILES: CN(C)c1ccc(S(=O)(=O)NCC(=O)NCCOc2ccccc2F)cc1[N+](=O)[O-]
  RecA splice inh: -0.3; Arbovirus anti: /; YopH PTP inh: /; Mtb betalactam: -7.5; Mtb growth: /

SMILES: O=C(c1ccco1)N1CCN(CCCCN2C(=O)c3ccccc3C2=O)CC1
  RecA splice inh: -2.1; Arbovirus anti: -0.4; YopH PTP inh: -39.2; Mtb betalactam: -13.8; Mtb growth: -5.1%

SMILES: COc1ccc(CC(=O)n2nc(-c3ccccc3)nc2NCc2ccco2)cc1
  RecA splice inh: -0.9; Arbovirus anti: 1.9; YopH PTP inh: -21.9; Mtb betalactam: -4.2; Mtb growth: /

SMILES: Cc1ccc(C)c(NC(=S)NCC(c2ccccc2)N(C)C)c1 (stereo not given)
  RecA splice inh: -3.7; Arbovirus anti: 9.2; YopH PTP inh: /; Mtb betalactam: -1.8; Mtb growth: 7.7%

Following part
Below each compound: RecA splice inh, Arbovirus anti, YopH PTP inh, Mtb betalactam, Mtb growth
- CNCc1ccccc1OCC(=O)Nc1ccccc1OC
→ /, 0.7, -15.1, -3.3, -2.4%
- COc1ccc(S(=O)(=O)CCC(=O)N2CCN(c3cccc(Cl)c3)CC2)cc1
→ -0.2, /, /, 0.9, /
- Cc1cccc(NCc2ccc([N+](=O)[O-])s2)c1
→ 0.4, /, /, -1.0, /
- Cn1cccc1/C=N/NC(=O)c1cccc(OC(F)(F)C(F)F)c1
→ -0.4, -1.3, 15.5, 1.7, 7.0%
- CC(NC(=O)C(=O)NCC1CCCO1)c1ccccc1 (stereo not given)
→ -0.5, 13.3, /, -5.8, 5.0%
- Cn1c(=O)n(C)c2cc(NS(C)(=O)=O)ccc21
→ -3.5, 0.7, -2.3, -1.0, -7.5%
- CCCCCCNC(=O)Cc1nc2nc(C)cc(C)n2n1
→ -0.7, 7.2, 4.4, 2.9, -14.4%
- Cc1ccc(S(=O)(=O)c2nnn3c2nc(N2CCN(c4ccccn4)CC2)c2ccccc23)cc1
→ -1.2, /, /, -3.5, /
- O=C1/C(=C/c2ccc(F)cc2)CCC1C1CCCC1 (stereo not given)
→ 7.0, 5.5, -25.3, 2.4, 9.7%
- CN1C2C=C3C(C#N)=C(N)C(C#N)(C#N)[C@@H](c4cccc(F)c4)[C@@H]3C1CC2 (stereo not given in full)
→ -4.7, 5.6, -11.4, -6.9, 0.9%
- Cc1ccc(OCCNC(=O)c2cc(=O)[nH]c3ccccc23)cc1
→ -0.4, 7.9, /, 0.6, -0.7%
- CC(NCc1ccccc1Cl)C(=O)Nc1ccc(S(=O)(=O)N2CCCC2)cc1 (stereo not given)
→ 1.4, 9.5, -0.3, 1.2, -1.9%
- CCOc1ccc(C(c2c(O)nc(SC)[nH]c2=O)c2c(O)nc(SC)[nH]c2=O)cc1
→ -2.3, /, /, 8.3, /
- O=c1[nH]c(Cn2nnc(-c3ccccc3)n2)nc2scc(-c3ccccc3)c12
→ /, 17.1, -21.4, 70.5, 7.3%
- COc1ccc(N(C)C(=O)Cc2c(C(=O)O)n(C)c3ccccc23)cc1
→ 0.4, /, /, 5.3, /
- Cc1cc(C)nc(NS(=O)(=O)c2ccc(NC(=S)NC(=O)C(C)C)cc2)n1
→ -3.1, 0.1, -35.9, -2.1, -15.1%
- CC(C)(CNC(=O)c1sc2cc(F)ccc2c1Cl)N1CCOCC1
→ /, -7.7, -26.4, 5.6, 12.4%
- COc1ccc(S(=O)(=O)NCC(=O)N(Cc2ccco2)C(C(=O)NC(C)(C)C)C(C)C)cc1 (stereo not given)
→ 0.0, /, /, -8.6, /
- Nc1c(C(=O)c2ccc(Br)cc2)oc2ccccc12
→ -1.5, -0.4, -25.4, -4.3, 1.6%
- CN1CCC(C2(O)c3ccccc3CSc3sccc32)CC1 (stereo not given)
→ /, -9.4, -21.4, 0.8, 2.3%
- COc1cccc(-c2nn(-c3ccccc3)cc2/C=C(/NC(=O)c2ccccc2)C(=O)O)c1
→ -1.1, /, /, -3.8, 1.2%
- O=C(Cn1c(CN2CCCCC2)nc2ccccc2c1=O)NCc1ccco1
→ -0.5, 5.0, -20.8, -0.7, 5.4%
- CCOc1cc(NS(C)(=O)=O)c(OCC)cc1NC(=O)c1cccs1
→ -0.2, -1.9, -17.0, -22.1, -8.7%
- O=C(Cc1ccccc1)Nc1ccccc1CO
→ /, 11.4, -110.5, -6.5, 2.7%
- O=C(CSc1nc2ccccc2c(=O)n1CC1CCCO1)NCc1ccc2c(c1)OCO2 (stereo not given)
→ -2.1, 3.3, /, 1.3, 7.7%
- O=C(NCCCn1ccnc1)/C(=C\c1cccs1)NC(=O)c1ccccc1
→ -1.7, -3.7, -30.4, -2.8, -15.5%
- CCOc1ccc(CNC2CCCc3ccccc32)cc1 (stereo not given)
→ 0.0, -0.8, /, -11.7, 7.0%
- CC(C)CN(C(=O)CSc1nncs1)c1c(N)n(CC(C)C)c(=O)[nH]c1=O
→ -1.4, 5.3, 16.0, -20.3, -4.3%
- CCN1C(=O)[C@H]2[C@@H](c3ccc(-c4ccccc4)c(OC)c3)N[C@@](Cc3ccccc3)(C(=O)OC)[C@H]2C1=O
→ 1.9, /, /, -3.2, /
- COc1ccc(NC(=O)CSc2nccn2Cc2ccco2)cc1OC
→ 0.6, /, /, 6.8, /
- COc1ccc(NC(=O)CCS(=O)(=O)c2ccccc2)c(OC)c1
→ 0.2, 0.7, -11.1, -7.0, -6.9%
- COCCn1cc(C(=S)N2CCCCC2)c2ccccc21
→ -0.9, 3.1, /, -1.5, 0.7%
- CCOC(=O)C1CCN(C(=O)Cc2ccc(-c3ccccc3)cc2)CC1
→ 3.9, /, /, 55.8, /
- COc1cc(-c2nnc(-c3cccnc3)o2)cc(OC)c1OC
→ -0.2, 3.0, -31.8, 5.2, -4.5%
- CCOC(=O)c1cn(Cc2ccc(Cl)cc2Cl)c2cc(C)nn2c1=O
→ 0.8, /, /, -17.5, -9.4%
- Cc1ccc[n+](CC(=O)c2cc3ccccc3oc2=O)c1
→ -1.6, 8.3, -31.2, -5.5, 0.8%
- CCOC(=O)C1CCCN(C/C(O)=C(\C#N)c2nc(-c3ccccc3)cs2)C1 (stereo not given)
→ -0.7, 4.1, -30.9, -13.3, -16.3%
- CC(C)NC(=O)COC(=O)c1cc(F)c(F)cc1Cl
→ -1.9, 2.9, 15.8, 88.6, -8.7%
- CC(=O)OCC(=O)Nc1ccc(C(C)=O)cc1
→ -0.9, 1.0, -1.4, /, -1.9%
- COc1ccc(C2CC(O)(c3ccccc3)Oc3c(C)ccc(C)c32)cc1 (stereo not given)
→ 7.5, /, /, 4.3, 2.6%
- O=C(Cn1ccc([N+](=O)[O-])n1)NCc1ccco1
→ 0.7, -3.5, -53.2, 11.1, -1.9%
- CCC(C)NC(=S)NNC(=O)c1ccc(C(C)(C)C)cc1 (stereo not given)
→ 3.1, -15.6, -23.1, 25.1, 10.6%
- CCOC(=O)Cc1nnc2c(Nc3ccc(C)cc3)nc3nonc3n12
→ 0.1, -3.2, 19.0, 7.4, -1.4%
- COc1ccc(CN2C(=O)c3cccnc3C2=O)cc1S(=O)(=O)N(C)c1ccc(C)cc1
→ 3.9, /, /, -5.7, /
- Nc1nc(NCC2CCCO2)nc(Nc2ccccc2F)c1[N+](=O)[O-] (stereo not given)
→ 3.6, /, /, 12.3, 2.0%
- CC1CCc2nc(NC(=O)CN3CCN(c4ccccc4)CC3)sc2C1 (stereo not given)
→ -4.5, 2.2, -44.2, 99.4, 24.6µM*
- Cc1cc(C)c2c(N)c(C(=O)N3CCc4ccccc4C3)sc2n1
→ -0.3, -8.3, /, 51.2, 5.4%
- O=C(CN(Cc1ccco1)C(=O)Cn1nnc(-c2ccc(F)cc2)n1)NC1CCCC1
→ 1.6, 6.8, 14.1, -5.4, /
- c1ccc2oc(NC3=NCN(C4CCCCC4)CN3)nc2c1
→ 3.3, /, /, -7.6, -2.2%
- CCc1ccccc1NC(=O)CCS(=O)(=O)c1ccc(Br)cc1
→ -1.0, /, /, -1.4, /
- FC(F)(F)c1ccccc1-n1c(-c2cnccn2)n[nH]c1=S
→ /, /, /, -2.2, -0.3%

Only part of the results is shown (hit frequency here may not be typical).
